Screens as filed in PubChem.
V. cholerae QS = Vibrio cholerae quorum sensing activators, luminescence (AID 686977); V. cholerae quorum sensing reporter, luminescence, 6 h; higher luminescence means a stronger effect; most inactives read 0; luminescence at 50 µM unless noted, or EC50 in µM where a hit was titrated; 9,400 tested, under 10 active;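 active = light above mean plus 3 SD and confirmed in a dose series; inconclusive = above that limit without a clear retest; inactive = below it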;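 also: raw light counts without normalisation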
Starred values were filed as active, the others as inactive; ? = inconclusive; [ ] = dose if it differs, or a comment. Only part of the results is shown; rates above refer to the full screens.

SMILES	V. cholerae QS
COc1ccc(Cc2nnc(NC(=O)C3CCCO3)s2)cc1 (stereo not drawn)	?
Cn1c(NC(=O)c2ccccc2NC(=O)C(C)(C)C)nc2ccccc21	40
Cc1cc(NC(=O)/C=C/C(=O)N(c2ccccc2C)C(C(=O)NC2CCCC2)c2ccc(F)cc2)no1 (stereo not drawn)	0
CCOC(=O)C1CCCN(c2c(NCCc3ccc(S(N)(=O)=O)cc3)c(=O)c2=O)C1 (stereo not drawn)	0
CN1C(=O)N(C)C2(c3ccccc3)Nn3c(s/c(=C/c4ccccc4F)c3=O)=NC12c1ccccc1 (stereo not drawn)	40
Cn1c(=NC(=O)c2ccco2)sc2cccc(F)c21	?
COc1ccc(-c2n[nH]c(=S)o2)c(OC)c1	0
Cc1ccc(-c2nc(NC(=O)CSc3nnc(C)s3)ns2)cc1	40
CCc1cccc(NC2c3ccccc3C(=O)N2c2ccc(C)cn2)c1 (stereo not drawn)	0
CCCNc1nc2c(c(=O)[nH]c(=O)n2C)n1Cc1ccc(F)cc1	0
CC(NC(=O)C1CCCN(S(=O)(=O)c2cnc[nH]2)C1)c1ccccc1 (stereo not drawn)	0
C#CCn1c(=NC(=O)c2ccc(Cl)s2)sc2cccc(OC)c21	0
COc1ccccc1-n1cnnc1SCC(=O)Nc1nc(C)c(Cl)cc1Cl	0
COc1ccc(OC)c2sc(NC(=O)c3ccc(S(=O)(=O)N(C)C)cc3)nc12	0
CCC(C)NC(=O)CN(c1ccc2c(c1)OCO2)S(=O)(=O)c1c(C)n[nH]c1C (stereo not drawn)	40
CC(C)CN1C(=O)CC(Sc2ccccc2C(=O)O)C1=O (stereo not drawn)	0
O=C(c1ccc(Br)o1)N1CCN=C1SCc1cccc(F)c1	40
C[C@H]1O[C@@H](O[C@H]2[C@@H](O)C[C@H](O[C@H]3[C@@H](O)C[C@H](O[C@H]4CC[C@@]5(C)[C@H](CC[C@@H]6[C@@H]5C[C@@H](O)[C@]5(C)[C@@H](C7=CC(=O)OC7)CC[C@]65O)C4)O[C@@H]3C)O[C@@H]2C)C[C@H](O)[C@@H]1O	40[10 µg/mL]
COC(=O)c1ccc(C(=O)OC)c(NC(=O)CN(c2ccc3c(c2)OCO3)S(C)(=O)=O)c1	0
CNC(=O)Nc1ccc(Cl)cc1	0
S=C(c1cccs1)N1CCCC1	0
O=C1C(O)=C(O)C(=O)C(O)=C1O	0[10 µg/mL]
COc1ccc2c(COC(=O)c3n[nH]c4ccccc34)cc(=O)oc2c1	0
Cc1cccc(CSc2nc3sc(C)c(C)c3c(=O)n2Cc2ccco2)c1	0
C=CCn1c(N2C(=O)CC(Cc3ccccc3)C2=O)nc2ccccc21 (stereo not drawn)	40
C/C(=N\O)C(=O)NCc1ccccn1	0
Cc1cc(NC(=O)COC(=O)[C@H](C)NC(=O)c2ccccc2)no1	40
O=C(CCCCCN1C(=O)C2C3C=CC(C3)C2C1=O)Nc1nccs1 (stereo not drawn)	0
Cn1c(NC(=O)c2cc(Cl)ccc2Cl)cc(=O)n(C)c1=O	0
COc1ccc(S(=O)(=O)N(Cc2ccccc2)Cc2nc3ccccc3c(=O)[nH]2)cc1	0
CCn1c(=O)cc(OCC(=O)N2CCc3ccccc32)c2ccccc21	0
NCC(O)c1ccc(O)cc1 (stereo not drawn)	40[10 µg/mL]
COc1ccc(C2CC(c3c(-c4ccccc4)c4cc(Cl)ccc4[nH]c3=O)=NN2S(C)(=O)=O)cc1OC (stereo not drawn)	0
Cc1sc2ncnc(N[C@@H](CCC(=O)O)C(=O)O)c2c1C	40
CCN(CC)CCCNC(=O)CC1Oc2ccc(C)cc2NC1=O (stereo not drawn)	40
COc1ccc(S(=O)(=O)N/N=C\c2ccc3c(c2)OCO3)cc1	40
CN(C(=O)C1CCCO1)c1nnc(-c2ccncc2)s1 (stereo not drawn)	40
CCOC(=O)N=S(N)(=O)c1ccc(Cl)cc1 (stereo not drawn)	0
NC(=O)COC(=O)c1ccc(S(=O)(=O)N2CCCCCC2)cc1	40
COC1=C[C@@H]2C3=C([C@@H]2C1=O)[C@@H](NC(C)=O)CCc1cc(OC)c(OC)c(OC)c13	40[10 µg/mL]
CCCCN(CC)CCNC(=O)CN(C)S(=O)(=O)c1ccc2c(c1)c(=O)n(C)c(=O)n2C	?
COc1cc(C(=O)Nc2nnc(-c3sccc3C)s2)cc(OC)c1OC	0
CNC(=O)CN(C)S(=O)(=O)c1ccc(F)cc1	0
O=C(CSc1cn(CCNC(=O)c2ccccc2)c2ccccc12)NCc1ccco1	0
COc1ccccc1OCC(=O)Nc1ccc(S(=O)(=O)Nc2nc(C)cc(C)n2)cc1	40
COc1ccc(-c2cc(C(=O)N3CCCc4ccccc43)no2)cc1OC	40
Cc1cc(NS(=O)(=O)c2ccc(N)cc2)no1	0[10 µg/mL]
CCn1c(SCC(=O)c2[nH]c(C)c(C(C)=O)c2C)nnc1-c1ccccc1	0
CCC(=O)Nc1nc(-c2ccc3c(c2)OCCO3)cs1	?
O=C(CN1CCC(n2nnc3cc(F)ccc32)CC1)Nc1ccc2c(c1)CCC2	0
COC(=O)c1cc2cc(NS(=O)(=O)c3ccc(C)cc3)ccc2s1	0
O/N=C(\c1ccc(Cl)cc1Cl)c1ncc(C(F)(F)F)cc1Cl	0
CNC(=O)C1CCCN1S(=O)(=O)c1ccc(OC)cc1 (stereo not drawn)	40
Cc1nnc2ccc(N3CCN(c4ccccn4)CC3)nn12	0
Cc1ccc(N2C(=O)C3CC(c4ccccc4)=C4C5C=CC(C6C(=O)N(c7ccc(C)cc7C)C(=O)C56)C4C3C2=O)c(C)c1 (stereo not drawn)	?
COc1ccc(C(=O)Nc2nc3ccccc3c(=O)[nH]2)cc1	40
c1ccc2c(CNCCN3CCOCC3)cccc2c1	200
Cc1cccc(C)c1Nc1nc2ccccc2o1	0
CC(C)OCCCNC(=O)c1ccc(NC(=O)C2CCCO2)cc1 (stereo not drawn)	40
COc1cc(C2N(c3cccc(Cl)c3)C(=O)C3CCCN32)cc(OC)c1OC (stereo not drawn)	0
(listing goes on)
SMILES	V. cholerae QS
O=S1CCCSC1c1cccnc1 (stereo not drawn)	0
COc1cccc(C2c3c(oc4ccc(F)cc4c3=O)C(=O)N2CCCN2CCOCC2)c1 (stereo not drawn)	40
O=C(CCN1CCCC1)Nc1cccc(Br)c1	0
O=c1sc(N2CCN(c3ccc(F)cc3)CC2)nc2ccsc12	0
O=C(Nc1ccc(C(F)(F)F)cc1)c1cccnc1N1CCOCC1	40
NC(=O)C1CCN(Cc2nc3cc(Cl)ccc3c(=O)[nH]2)CC1	40
O=C(O)/C=C/C(=O)Nc1ccccc1-c1ccccc1	0
CCC(c1nc2ccccc2c(=O)n1CCN1CCOCC1)N1C(=O)c2ccccc2C1=O (stereo not drawn)	240
Cc1ccc(Nc2ncnc3nc[nH]c23)cc1Cl	0
COC(=O)C1=C(C)N=c2s/c(=C3\C(=O)Nc4ccccc43)c(=O)n2C1c1ccccc1 (stereo not drawn)	40
Cn1nc(-c2ccc(Cl)cc2)c2cc(C(=O)NCCN3CCOCC3)sc21	0
O=c1ccccn1Cc1ccccc1F	40
O=C(CCS(=O)(=O)c1cccs1)Nc1ccc(C(=O)NCc2ccc(F)cc2)cc1	0
O=C(COc1c(Br)cc(Br)c2cccnc12)N1CCc2ccccc2C1	240
COc1ccc(NC(=O)C2CCCN2S(=O)(=O)c2ccc3c(c2)CCC(=O)N3)c(OC)c1 (stereo not drawn)	0
Cc1cc(C(=O)NCCN2CCN(c3cccc(Cl)c3)CC2)n(-c2ccccc2)n1	40
c1cncc(Nc2nc(-c3cccs3)cs2)c1	0
CCc1cc2c(=O)nc3n(c2s1)Cc1ccccc1/C3=C(/O)c1ccccc1Cl	0
O=C(NCCCN1CCOCC1)c1coc2ccccc2c1=O	40
N#CC1=C2SCN(Cc3ccccc3)CN2C(=O)CC1c1cccs1 (stereo not drawn)	?
C=CCc1cccc(OC)c1OCCOCCNCCO	40
O=C(c1ccco1)N1CCN(C(=O)c2cc3sccc3n2Cc2ccccc2)CC1	0
O=C(N1CCOCC1)N1CCN(c2ccccc2F)CC1	0
Cc1cccc(C)c1NC(=O)CSc1nnc(CCCCCNC(=O)OC(C)(C)C)o1	40
Cc1ccccc1-c1ccc(Nc2ccc(C(=O)N3CCOCC3)cc2)nn1	0
COc1cccc(CNC(=O)C2CCN(S(=O)(=O)c3c(C)nn(C)c3C)CC2)c1	40
C[C@]12CCC(=O)C=C1CC[C@@H]1[C@@H]2C(=O)C[C@]2(C)C(=O)CC[C@@H]12	80[10 µg/mL]
COc1ccc(CCNC(=O)Cc2cc(=O)[nH]c(=O)[nH]2)cc1OC	0
CC(C)CSc1ncnc2c1oc1nc3c(cc12)COC(C)(C)C3	0
Cc1ccc(S(=O)(=O)NC(=O)NN2CC3CCCC3C2)cc1 (stereo not drawn)	0[10 µg/mL]
CCOC(=O)C1CCCN(C(=O)c2cc3c(=O)n(C)c4ccccc4c3n2C)C1 (stereo not drawn)	0
CC(=O)NCCOC(=O)Nc1ccncc1	0
Cc1c(OCC(F)(F)F)ccnc1CS(=O)c1nc2ccccc2[nH]1 (stereo not drawn)	0[10 µg/mL]
CNc1nc(C)cc(C)c1S(=O)(=O)c1ccc(Cl)cc1	0
CCCNC(C)C(=O)Nc1ccccc1C (stereo not drawn)	40[10 µg/mL]
CCN(CC)S(=O)(=O)c1ccc(NC2c3ccccc3C(=O)N2CCN2CCOCC2)cc1 (stereo not drawn)	0
Cc1c(Cl)cccc1NC(=O)c1cc(-c2ccccc2O)n[nH]1	0
O=C(Nc1ccc(Cl)cc1)[C@@H]1[C@@H]2C(=O)N(c3ccc(Cl)cc3)C(=O)[C@@H]2[C@H]2C=CC=NN21	0
Cc1nn(CC(O)Cn2c3c(c4ccccc42)CCN(C)C3=O)c(C)c1Br (stereo not drawn)	0
CS(=O)(=O)N(Cc1ccccc1)c1ccccc1C(=O)N1CCN(c2ccccc2)CC1	0
Cc1nn2c3ccccc3nc2c2ccccc12	0
COc1ccc(CNc2ccc3c(c2)CCC3)cc1OC	0
CCn1ncc(C2=NOC(C(=O)Nc3c(C)nn(Cc4ccc(F)cc4)c3C)C2)c1C (stereo not drawn)	0
O=C1N2CCSC2=NC1(Nc1ccccn1)C(F)(F)F (stereo not drawn)	?
CCn1cc(C(=O)N2CCn3c(nc4ccccc43)C2)c(=O)c2ccc(C)nc21	0
CCCNS(=O)(=O)c1ccc(OCC(=O)Nc2ccc3c(c2)OCCO3)cc1	40
CCc1nc2c(cnn2-c2ccc(Cl)cc2)c(=O)n1-c1ccc(OC)cc1	0
c1ccc(CNc2ncnc3nc[nH]c23)nc1	?
O=C(CSc1nc(-c2ccccc2)nc2c1Cc1ccccc1O2)Nc1ccccc1	40
COC(=O)Cn1c(CN2CCN(c3ccc(F)cc3)CC2)nc2c1c(=O)n(C)c(=O)n2C	40
CN(C)CCn1nnnc1SCC1=C(C(=O)O)N2C(=O)[C@@H](NC(=O)Cc3csc(N)n3)[C@H]2SC1	0[10 µg/mL]
Cc1cccc(NC(=O)c2cnc3scc(C)n3c2=O)c1	40
O=C(NCc1ccc2c(c1)OCO2)c1ccc2c(c1)C(=O)N(Cc1cccnc1)C2=O	0
O=C(CSc1nnc(-c2ccc(F)cc2)o1)Nc1ccc(S(=O)(=O)N2CCCCCC2)cc1	40
CCCSc1nc2c(cnn2-c2ccc(C)cc2)c(=O)[nH]1	40
COc1ccc(Nc2ncnc3c2cnn3-c2ccccc2)cc1OC	0
CN(C(=O)COc1nnc(-c2cccs2)c(-c2cccs2)n1)c1ccccc1	40
COc1ccccc1NC(=O)c1ccccc1SC	0
Cc1oc2cc(OCC(=O)O)ccc2c(=O)c1Oc1ccccc1	280
CSc1cccc(NC(=O)/C=C/c2ccc(Cl)cc2)c1	0
Further compounds follow.
SMILES	V. cholerae QS
COCCNC(=O)CSc1nc(-c2ccccc2)cs1	240
CCOC(=O)c1cc(C)sc1NC(=O)c1ccc(Cl)s1	0
Cc1ccc(C)c(NC(=O)CSc2nnc(-c3ccccc3)o2)c1	0
CC1(C(=O)NCc2ccccc2)Oc2ccccc2NC1=O (stereo not drawn)	0
COc1ccccc1-n1cnc2cc(NCc3cccs3)ccc21	0
COc1nnc(-c2ccc(N3CCCCC3)c(NC(C)=O)c2)c2ccccc12	0

Molecules from the list above that have two or more sulfur atoms, in the order listed:
SMILES	V. cholerae QS
Cc1ccc(-c2nc(NC(=O)CSc3nnc(C)s3)ns2)cc1	40
C#CCn1c(=NC(=O)c2ccc(Cl)s2)sc2cccc(OC)c21	0
COc1ccc(OC)c2sc(NC(=O)c3ccc(S(=O)(=O)N(C)C)cc3)nc12	0
S=C(c1cccs1)N1CCCC1	0
Cc1cccc(CSc2nc3sc(C)c(C)c3c(=O)n2Cc2ccco2)c1	0
COc1cc(C(=O)Nc2nnc(-c3sccc3C)s2)cc(OC)c1OC	0
COC(=O)c1cc2cc(NS(=O)(=O)c3ccc(C)cc3)ccc2s1	0
O=S1CCCSC1c1cccnc1 (stereo not drawn)	0
O=c1sc(N2CCN(c3ccc(F)cc3)CC2)nc2ccsc12	0
O=C(CCS(=O)(=O)c1cccs1)Nc1ccc(C(=O)NCc2ccc(F)cc2)cc1	0
c1cncc(Nc2nc(-c3cccs3)cs2)c1	0
N#CC1=C2SCN(Cc3ccccc3)CN2C(=O)CC1c1cccs1 (stereo not drawn)	?
CN(C)CCn1nnnc1SCC1=C(C(=O)O)N2C(=O)[C@@H](NC(=O)Cc3csc(N)n3)[C@H]2SC1	0[10 µg/mL]
O=C(CSc1nnc(-c2ccc(F)cc2)o1)Nc1ccc(S(=O)(=O)N2CCCCCC2)cc1	40
CN(C(=O)COc1nnc(-c2cccs2)c(-c2cccs2)n1)c1ccccc1	40
COCCNC(=O)CSc1nc(-c2ccccc2)cs1	240
CCOC(=O)c1cc(C)sc1NC(=O)c1ccc(Cl)s1	0

Of the compounds above, 2 have a tert-butyl group.
SMILES	V. cholerae QS
Cn1c(NC(=O)c2ccccc2NC(=O)C(C)(C)C)nc2ccccc21	40
Cc1cccc(C)c1NC(=O)CSc1nnc(CCCCCNC(=O)OC(C)(C)C)o1	40
